HNF4A DNA FP – change in binding of human HNF4 alpha to DNA. HNF4a-FITC DNA binding, fluorescence polarization, 1 h. 360,000 tested, 0.3% active. activity change, % at 10 µM. P41235; in the data active = activity change above about 30%, passing the limit was not always enough;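 also: controls were the assay level and a saturating level of protein; the project sought stronger binding though the title names inhibitors; some compounds called inactive have numbers as strong as hits; positive values seem to mean higher polarization but the record does not say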
Target sequence (P41235 whole entry, looked up): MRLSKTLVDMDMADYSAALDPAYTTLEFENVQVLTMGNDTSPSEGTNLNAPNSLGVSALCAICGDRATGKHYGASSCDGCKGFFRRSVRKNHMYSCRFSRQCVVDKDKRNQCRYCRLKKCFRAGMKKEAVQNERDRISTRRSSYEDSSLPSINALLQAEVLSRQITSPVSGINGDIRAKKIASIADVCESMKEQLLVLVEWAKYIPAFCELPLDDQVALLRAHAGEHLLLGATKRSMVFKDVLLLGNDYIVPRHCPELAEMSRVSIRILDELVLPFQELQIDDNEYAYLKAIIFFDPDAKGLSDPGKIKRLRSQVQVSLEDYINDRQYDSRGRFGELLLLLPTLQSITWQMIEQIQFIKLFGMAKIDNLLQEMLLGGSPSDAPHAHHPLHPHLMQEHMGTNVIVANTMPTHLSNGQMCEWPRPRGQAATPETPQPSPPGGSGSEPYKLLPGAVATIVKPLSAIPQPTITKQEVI
ALR inh – inhibitors of human sulfhydryl oxidase ALR; P55789; purified ALR, DTT oxidation, H2O2 HRP-luminol luminescence; inhibition, % (concentration not given with the values); 290,000 tested, 3.8% active; AID 485317;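 active = mean and each replicate at 75% or more; inconclusive = only one of the two met; inactive = neither met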;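 also: stock transfer was 7.5 nL into about 7.5 µL; 0% = neutral wells and 100% = wells with inactivated enzyme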
Vif A3G – HIV-1 Vif–A3G interaction blockers – biochemical, TR-FRET, GST-Vif 1-94, biotin-A3G peptide, dose response retest, primary screen (AID 1117319) | 260,000 tested, 0.57% active | one-dose inhibition, %; IC50 in µM for titrated hits | TR-FRET GST-Vif / biotin-A3G peptide binding; higher % means a stronger effect; test concentration not given here; strong numbers were not always called active;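 active = above the screen mean plus three standard deviations and confirmed in dose response; inconclusive = results disagree or hit not tested in dose response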;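 also: Vif residues 1-94 fused to GST binding biotinylated APOBEC3G peptide 110-148; 0% = full assay without inhibitor and 100% = GST in place of GST-Vif; retest series ran down from 100 µM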
FGF22 binding – shifts melting point of recombinant human FGF22; calls only at 9.99 µM; recombinant FGF22 thermal shift, SYPRO orange fluorescence; percent of sucrose octasulfate shift, DMSO zero; Q9HCT0; 340,000 tested, 1.5% active;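 active = melting point raised past a set limit in the mean and every replicate; inconclusive = no clear call; three in four hits are not shown here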
rRNA inh HTS – selective bacterial rRNA inhibition in E. coli. E. coli WT GFP vs humanized-ribosome RFP mutants, fluorescence, 24 h; hits give low values; DMSO median 0, no signal -100. 350,000 tested, 1.6% active. GFP signal change (wild-type ribosome), % (test concentration not listed);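 active = significant combined selectivity score with lowered wild-type GFP, culture density cut under 30%, mutant RFP and density less affected; inactive = any of these conditions unmet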; also: one replicate is shown; some compounds called inactive have numbers as strong as hits
MLL AF4-AF9 inh – blocks AF4 peptide binding to human AF9; 350,000 tested, 0.47% active; AID 651704; AlphaScreen, biotin-AF4 peptide binding to FLAG-AF9; inhibition, % at 10 µM; P42568;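 active = every replicate reaching a set inhibition limit, whatever the replicate mean, cut at about 25% in these data; inconclusive = mean inhibition reaches that limit but some replicates miss it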;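 also: 0% = plate neutral control median and 100% = total signal loss; the record names both 10 and 1 µM as test concentration; the first replicate is given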
Target sequence (P42568 whole entry, looked up): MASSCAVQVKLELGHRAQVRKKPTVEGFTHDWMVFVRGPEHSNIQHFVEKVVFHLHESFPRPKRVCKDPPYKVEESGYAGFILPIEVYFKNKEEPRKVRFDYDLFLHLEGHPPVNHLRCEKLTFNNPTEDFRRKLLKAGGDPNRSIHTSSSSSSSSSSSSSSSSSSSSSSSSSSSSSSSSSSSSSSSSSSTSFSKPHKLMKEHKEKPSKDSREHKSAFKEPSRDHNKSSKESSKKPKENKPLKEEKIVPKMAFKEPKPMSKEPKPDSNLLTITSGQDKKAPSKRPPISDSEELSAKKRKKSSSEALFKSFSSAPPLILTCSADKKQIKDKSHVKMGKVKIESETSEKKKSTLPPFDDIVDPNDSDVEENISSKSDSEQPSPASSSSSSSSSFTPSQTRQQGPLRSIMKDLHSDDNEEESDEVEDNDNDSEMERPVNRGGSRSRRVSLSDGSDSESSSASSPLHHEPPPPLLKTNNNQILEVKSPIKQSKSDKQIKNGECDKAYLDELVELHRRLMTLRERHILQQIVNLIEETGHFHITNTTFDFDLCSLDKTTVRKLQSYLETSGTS
Ecoli growth – inhibitors of Escherichia coli growth | OD600, 23 h; hits give low values | OD600 absorbance (no concentration beside the values) | 330,000 tested, 0.21% active;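 active = OD600 absorbance below the run mean of sample wells minus 3.6 SD, in any replicate, cut at about 0.56 in these data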;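 also: stock transfer was 300 nL into about 60 µL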
rRNA inh HTS OD600 – also measured in rRNA inh HTS; calls as there; OD600 change, %; measured here: OD600 growth;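 optical density of the mix in the first replicate; 0 = DMSO median and -100 = no signal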
rRNA inh HTS RFP – also measured in rRNA inh HTS; calls as there; RFP signal change, %; measured here: RFP humanized mutant strains;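 first replicate; 0 = DMSO median and -100 = no signal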
* marks the source's active call; other numbers are inactive results; i = inactive; ? = inconclusive; . = not tested or not shown; + = active, no number. Only part of the results is shown; count on the stated rates, not on these rows.

SMILES	HNF4A DNA FP	ALR inh	Vif A3G	FGF22 binding	rRNA inh HTS	rRNA inh HTS OD600	rRNA inh HTS RFP	MLL AF4-AF9 inh	Ecoli growth
CCOc1ccc(/C=N/NC(=O)c2cc3c(OC)cc(OC)c(OC)c3[nH]2)cc1	0.7	-10	0%	i	-20	-16	2.5	4.0	.
CCCOc1ccc(/C(O)=C2/C(=O)C(=O)N(CCN(C)C)C2c2ccncc2)cc1 (centres undefined)	3.9	-1	.	.	.	.	.	.	0.71
O=C(Nc1nc(-c2ccccn2)cs1)C1CCCC1	0.9	.	0%	i	.	.	.	0.7	0.65
O=C(c1cccc(F)c1)N1CC[C@@H]2[C@H]1c1cc(-c3ccc(F)cc3)ccc1N[C@@H]2CO	.	.	.	i	-30	-54	23	-2.8	.
COc1ccccc1Nc1nnc(SCc2cc(=O)n3ccsc3n2)s1	-2.5	-162	8%	i	-20	1	0.4	-0.2	0.74
CCC(=O)N1C[C@@H](C)[C@@H](OC)CN(C)C(=O)c2ccc(NC(=O)CC(F)(F)F)cc2OC[C@H]1C	.	.	.	i	4	3	1.1	-5.0	.
CC(C)NC(=O)Nc1ccc2c(c1)CC(=O)N([C@@H](C)CO)C[C@H](C)[C@@H](CN(C)CC1CC1)O2	.	.	.	i	7	14	1.4	-2.6	.
CC(C)N1CCN(Cc2cnc(N3CCCC3)s2)CC1CCO (centres undefined)	3.6	.	.	i	-2	-3	3.0	-3.1	0.67
COc1cccc(C(Nc2ccccc2)c2ccc3ccc(C)nc3c2O)c1 (centres undefined)	5.2	.	.	.	-8	-15	10	3.2	.
O=C1CN(C(=O)c2ccc(Cl)nc2)c2ccccc2N1	-0.4	-6	4%	i	15	13	0.3	-2.9	0.69
Cc1c(Br)ccc(NC(=O)c2ccccc2[N+](=O)[O-])c1C	1.7	2	-10%	i	10	14	0.7	-1.7	0.72
COc1cccc2cc(C(=O)C3=C(O)C(=O)N(CCN4CCOCC4)C3c3ccc(C(C)(C)C)cc3)oc12 (centres undefined)	2.0	10	.	i	-1	-1	-2.3	8.0	0.71
O=C(CSCc1ccccc1Cl)NN1C(=O)c2ccccc2C1=O	-1.2	-66	-3%	.	.	.	.	.	0.69
Cc1[nH]c2ccccc2c1C(=O)COC(=O)Cn1c(C)nc2ccccc21	-0.5	-19	.	.	.	.	.	.	0.66
Cc1c(N2C(=O)/C(=C3/C(=O)N(C)c4ccccc43)SC2=S)c(=O)n(-c2ccccc2)n1C	1.0	-4	7%	.	.	.	.	.	0.69
Cc1ccccc1S(=O)(=O)N1CCCCN2[C@H](C1)[C@@H](c1ccc(-c3cccc(F)c3)cc1)[C@@H]2CO	.	.	.	i	-2	-1	-0.9	-0.7	.
Cc1ccccc1S(=O)(=O)Cc1ccc(C(=O)NCCN(Cc2ccccc2)C(C)C)o1	5.8	-10	.	i	1	-6	1.7	0.5	0.64
Nn1c(COc2ccccc2F)nnc1SCC(=O)NC1CCS(=O)(=O)C1 (centres undefined)	-2.4	-3	-4%	i	3	18	-0.3	5.5	0.66
CN1C(=O)c2cc(NC(=O)Cc3cccs3)ccc2OC[C@@H]2O[C@H](CC(=O)O)CC[C@@H]21	.	.	.	i	6	1	3.7	4.1	.
O=C(OC(C(=O)NCc1ccco1)C(OC(=O)c1ccccc1)C(=O)NCc1ccco1)c1ccccc1 (centres undefined)	1.2	-1	9%	i	13	9	-5.9	2.9	0.71
CCCC#Cc1ccc([C@H]2[C@H](C#N)N(S(=O)(=O)c3cccc(F)c3)[C@H]2CO)cc1	.	.	.	i	-28	-61	-1.2	0.1	.
COc1ccc(-c2cn(CC[C@@H]3CC[C@H](NC(=O)NC(C)C)[C@H](CO)O3)nn2)cc1	.	.	.	i	1	-4	-2.3	-1.9	.
COc1ccc(NC(=S)NC(NC(=O)c2cccc3ccccc23)C(Cl)(Cl)Cl)c([N+](=O)[O-])c1 (centres undefined)	-4.6	-6	2%	.	.	.	.	.	0.7
NNC(=O)c1oc2nc(-c3ccccc3)cc(-c3ccco3)c2c1N	1.6	-3	-9%	i	6	0	-1.4	-0.5	0.65
Cc1occc1C(=O)N1CCCC(N2CCN(c3cccc(Cl)c3)CC2)C1 (centres undefined)	-1.0	22	0%	i	-3	-5	0.0	4.4	0.67
Continuation.
SMILES	HNF4A DNA FP	ALR inh	Vif A3G	FGF22 binding	rRNA inh HTS	rRNA inh HTS OD600	rRNA inh HTS RFP	MLL AF4-AF9 inh	Ecoli growth
C[C@@H]1CCCCO[C@H](CN(C)CC2CCCCC2)[C@H](C)CN([C@@H](C)CO)C(=O)c2cc(NS(=O)(=O)c3cccs3)ccc2O1	.	.	.	i	1	-11	5.0	10	.
CCCCNC(=S)NNC(=O)c1csc(C)c1CC	4.4	40	-8%	.	.	.	.	.	0.67
c1ccc(N2CCCCC2)c(Nc2nc3ccccc3n3cnnc23)c1	-3.9	2	-14%	i	13	13	1.2	2.4	0.7
CCCCCCCCCc1nc2sc3c(c2c(=O)n1NC(=O)c1ccc([N+](=O)[O-])cc1)CC(C)(C)OC3	4.1	-3	-7%	.	.	.	.	.	0.68
O=C(Cc1ccccc1)N1C[C@H]2[C@@H](c3ccccc31)[C@@H](CO)N2C(=O)C1CCCCC1	.	.	.	i	0	-1	-3.1	-0.2	.
O=C(OCCCCN1C(=O)c2ccccc2C1=O)c1n[nH]c2ccccc12	-1.2	-2	-2%	.	.	.	.	.	0.7
Cn1c(CO)cnc1SCC(=O)c1ccc(Cl)cc1	-0.7	99*	-3%	i	4	-10	-4.9	0.5	0.69
C[C@@H]1CN([C@@H](C)CO)C(=O)c2cc(-c3ccc(C(=O)N(C)C)cc3)cnc2O[C@H]1CN(C)C(=O)C1CC1	.	.	.	i	6	8	-2.2	-4.0	.
CC(C)OC(=O)Nc1ccc2c(c1)N(C(=O)CCN1CCOCC1)c1ccccc1CC2	-3.1	-1	5%	i	-4	-14	-1.5	-1.2	0.69
N#C/C(=C(/O)COC(=O)COc1ccc(Cl)cc1)c1nc2ccccc2[nH]1	30	-3	.	i	25	9	22	-0.4	0.66
Cc1nc2cc(Cl)ccc2c(=O)n1Cc1ccncc1	-2.1	-3	-9%	i	1	7	3.1	1.0	0.68
N#CCC(=O)Nc1ccc(C(=O)OCC(=O)c2ccc3c(c2)OCO3)cc1	2.5	99*	-10%	i	1	0	-0.6	-3.4	0.61
O=C(O)Cc1ccc(-c2ccccc2)cc1	-1.1	.	6%	i	-3	2	-2.1	-1.4	.
O=C(COc1ccccc1Cl)NCCNC(=O)c1ccccn1	-1.1	-1	.	i	3	11	-0.3	-1.1	0.7
Cc1cc(C(=O)CN2C(=O)NC3(CCCc4sccc43)C2=O)c(C)n1-c1ccccc1 (centres undefined)	-2.4	-2	7%	.	.	.	.	.	0.69
COc1ccc(NS(=O)(=O)c2cc3c(cc2C)NC(=O)CO3)c(OC)c1	-3.7	0	.	i	10	11	0.8	3.9	0.78
C[C@]12c3[nH]c4cc(-c5ccco5)ccc4c3CCN1C(=O)[C@@H](CC(=O)NCC13CC4CC(CC(C4)C1)C3)C[C@@H]2C(=O)N1CCCCC1	6.5	.	-6%	.	3	14	13	6.9	0.7
CCc1nc2ccc(C(=O)NCCN3CCOCC3)cn2c1N(C)Cc1ccc(OC)cc1	-8.7	.	.	i	.	.	.	1.5	.
Cc1cccc(N/N=C(\C#N)S(=O)(=O)C(C)(C)C)c1	0.0	54	-4%	i	7	0	-1.4	-0.6	.
COc1ccc(S(=O)(=O)NC(CC(=O)NC2CCCC2)c2ccco2)cc1 (centres undefined)	-2.9	-5	-2%	.	.	.	.	.	0.78
COc1ccc(NC(=O)N(C)C[C@H]2Oc3ccc(NS(=O)(=O)c4ccc(F)cc4)cc3CC(=O)N([C@H](C)CO)C[C@@H]2C)cc1	.	.	.	i	-1	2	-4.5	0.6	.
O=[N+]([O-])c1ccc(S(=O)(=O)Nc2nnc(C(F)(F)F)s2)cc1	3.4	-9	.	+	5	7	0.4	0.1	0.67
CO[C@H](CN(C)C(=O)Nc1ccc(Cl)cc1)[C@H](C)CN(Cc1ccccc1Cl)[C@@H](C)CO	.	.	.	i	-36	-71	-0.3	1.7	.
CCOC1=C2[C@@H](CN(S(=O)(=O)c3ccc(C)cc3)[C@H]2c2ccccc2Cl)[C@H]2C(=O)NC(=O)[C@H]2C1	0.1	.	.	.	-11	-36	-1.6	-3.3	.
CCOC(=O)c1c(C)[nH]c(C)c1C(=O)CSc1nnnn1-c1ccccc1	0.8	2	32%	.	.	.	.	.	0.67
Following part:
SMILES	HNF4A DNA FP	ALR inh	Vif A3G	FGF22 binding	rRNA inh HTS	rRNA inh HTS OD600	rRNA inh HTS RFP	MLL AF4-AF9 inh	Ecoli growth
C=CCc1cccc(C=Nc2cc(Br)ccc2O)c1O	0.8	11	?	.	.	.	.	.	0.67
CCCCN(CC)CCNC(=O)c1[nH]c(C)c(C(C)=O)c1C	-1.5	-6	5%	.	.	.	.	.	0.68
Cc1cccc(C)c1OCc1n[nH]c(=S)n1-c1ccccc1	-0.6	1	-7%	i	-29*	-12*	6.4*	-0.7	0.59
COCCCNC(=O)Cn1c(=O)n(CC(=O)N2CCCCC2)c(=O)c2sccc21	2.4	0	-14%	i	2	12	-3.2	-5.2	0.71
COc1ccc(C(=O)NCC(=O)OCC(=O)NC2CCCC2)cc1	2.5	-12	.	i	10	3	-0.9	-6.5	0.67
N#Cc1ccccc1NC(=O)COC(=O)c1ccc2c(c1)OCO2	3.4	-7	.	i	11	16	0.5	0.4	0.66
CCOc1ncccc1C(=O)N1CCN(S(=O)(=O)c2ccc(Br)cc2Cl)CC1	-1.8	-23	-2%	i	0	7	0.9	-0.6	0.72
C=CCn1c(SCC(=O)c2c(N)n(C3CC3)c(=O)[nH]c2=O)nnc1-c1ccccc1OC	-1.9	.	8%	i	8	14	2.5	1.1	0.66
CCCc1[nH]c(=O)c(C#N)c2c1CCCC2	3.3	-2	6%	.	.	.	.	.	0.69
O=C(CN(C1CCCCC1)S(=O)(=O)c1ccc(Cl)cc1)NCCCO	-4.0	-32	16%	.	.	.	.	.	0.67
CC(=O)N1CC(=O)N2[C@H](CO)[C@H](c3ccc(-c4ccc(C)cc4)cc3)[C@@H]2C1	.	.	.	i	2	-3	-3.5	-2.4	.
Cc1ccc(C(=O)N2CCN(c3ccc(NC(=O)c4cc(C)cc(C)c4)cc3)CC2)cc1	1.5	-9	-4%	i	5	16	0.2	-1.2	0.73
Cn1c(=O)oc2cc(S(=O)(=O)N3CCN(C(=O)c4ccco4)CC3)ccc21	10	-3	-11%	.	.	.	.	.	0.74
Cc1[nH]n(-c2ncc(-c3ccccc3)s2)c(=O)c1C(c1ccc(Cl)cc1)C(C#N)C#N (centres undefined)	-3.7	12	.	i	-14	-6	0.2	12	0.64

Complete entries as entered above. Order of screens: HNF4A DNA FP	ALR inh	Vif A3G	FGF22 binding	rRNA inh HTS	rRNA inh HTS OD600	rRNA inh HTS RFP	MLL AF4-AF9 inh	Ecoli growth
CCc1nc2ccc(C(=O)NCCN3CCOCC3)cn2c1N(C)Cc1ccc(OC)cc1 is listed as -8.7	.	.	i	.	.	.	1.5	.
CCCCNC(=S)NNC(=O)c1csc(C)c1CC is listed as 4.4	40	-8%	.	.	.	.	.	0.67
CCOC(=O)c1c(C)[nH]c(C)c1C(=O)CSc1nnnn1-c1ccccc1 is listed as 0.8	2	32%	.	.	.	.	.	0.67

Bioassay records deposited in PubChem BioAssay by several laboratories.
